# ALR H2O2 inh = inhibitors of human sulfhydryl oxidase ALR; actives 3.8% (n = 290,000); P55789; inhibition, % (test concentration not listed); AID 485317; purified ALR, DTT oxidation, H2O2 HRP-luminol luminescence;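 active means mean and each replicate at 75% or more; inconclusive means only one of the two met; inactive means neither met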;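 further: stock transfer was 7.5 nL into about 7.5 µL; 0% = neutral wells and 100% = wells with inactivated enzyme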
# Target sequence (P55789 whole entry, looked up): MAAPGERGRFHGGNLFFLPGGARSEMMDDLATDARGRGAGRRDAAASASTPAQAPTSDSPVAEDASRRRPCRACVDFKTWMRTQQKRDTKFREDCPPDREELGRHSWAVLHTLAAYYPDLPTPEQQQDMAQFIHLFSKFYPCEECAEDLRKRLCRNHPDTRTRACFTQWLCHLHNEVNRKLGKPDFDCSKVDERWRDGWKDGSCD
# T cruzi inh = T. cruzi replication inhibition; inhibition, % (no concentration beside the values); AID 1885; T. cruzi beta-gal in NIH3T3, luminescence, 90 h; actives 1.4% (n = 300,000);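 active means mean inhibition across valid replicates above about 55%, limit read from the data; inconclusive means mean below that limit but half or more replicates reach it; inactive means mean below it, under half of replicates reach it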;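 further: signal also drops with host cell toxicity which is not excluded here; 0% = plate median of DMSO wells and 100% = zero luminescence signal; higher percent means less beta-gal luminescence so fewer parasites; stock transfer was 50 nL into about 50 µL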
# Beta apoptosis = blocks beta cell apoptosis | INS-1E cytokine-induced death, ATP luminescence, 48 h; percent of positive-control rescue, neutral wells zero | protection from apoptosis, % (no concentration beside the values) | actives 0.8% (n = 300,000);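 active means all replicates at 75% or more, or half of them and the mean; inconclusive means half reach 75% but not the mean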;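 further: 0% = cytokine-treated negative control wells and 100% = positive control rescue; higher means more ATP so stronger rescue from cytokine killing; wells of about 40 µL received 100 nL stock; the first replicate is given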
# LANA-H2B inh = blocks KSHV LANA binding to histone H2A/H2B; Q9QR71; cell-free LANA-H2A/H2B peptide, fluorescence polarization; inhibition, % (test concentration not listed); actives 0.6% (n = 320,000); AID 2629; in the data active means inhibition mostly above about 10%, no sharp cut-off; inactive means mostly below about 6.7%;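 further: stock transfer was 7.5 nL into about 10 µL; 0% = median of vehicle wells and 100% = median of positive control wells; one replicate is shown; the record names a cut of 25% in any replicate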
# Beta2AR agonist = human beta-2 adrenergic receptor agonism by FAP | Am2.2-beta2AR cells, FAP receptor internalization, flow cytometry; reference of the scale not given here | response, % (no concentration beside the values) | actives 0.43% (n = 340,000) | AID 504454;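 active means response above a set limit, near 3 SD of response in nonfluorescent compounds, cut at about 42% in these data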;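 further: stock transfer was 100 nL into about 11 µL; a reference agonist was the positive control; negative values mostly stem from fluorescent compounds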
# Target sequence (P07550 whole entry, looked up): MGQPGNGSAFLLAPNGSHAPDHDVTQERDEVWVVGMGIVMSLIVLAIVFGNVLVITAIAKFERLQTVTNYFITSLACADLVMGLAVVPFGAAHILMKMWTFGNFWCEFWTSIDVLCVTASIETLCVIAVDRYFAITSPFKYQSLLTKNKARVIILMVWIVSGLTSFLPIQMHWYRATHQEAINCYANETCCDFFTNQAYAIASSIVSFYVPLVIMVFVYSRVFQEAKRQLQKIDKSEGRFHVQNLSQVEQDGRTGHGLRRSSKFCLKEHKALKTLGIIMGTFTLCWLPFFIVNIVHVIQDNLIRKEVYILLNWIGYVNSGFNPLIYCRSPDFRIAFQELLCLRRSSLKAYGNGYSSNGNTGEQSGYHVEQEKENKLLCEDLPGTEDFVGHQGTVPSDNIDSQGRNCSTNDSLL
# Bfl-1 A1 inh = inhibitors of the anti-apoptotic protein A1, read as caspase activation; MEF A1-2A-BIM cells, Caspase-Glo 3/7 luminescence, 3 h; percent of clofoctol response, vehicle zero; caspase activation, % (concentration not given with the values); actives 0.066% (n = 330,000); AID 2462;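 active means over half of replicate activation scores above 10%, or exactly half above 10 with the replicate mean above 10; inconclusive means replicate mean below 10 yet half the replicates above 10; inactive means over half of replicates below 10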;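 further: wells of about 30 µL received 50 nL stock; many hits fall short of the cut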
# Calb FLC = affects C. albicans growth with fluconazole; growth inhibition, % (no concentration beside the values); actives 0.57% (n = 300,000); AID 1979; C. albicans CaCi-2 (fluconazole-resistant clinical isolate) + fluconazole, Alamar Blue growth, 48 h;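 active means most replicates above 75%; inconclusive means exactly half above 75%; inactive means most below 75%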;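 further: all wells also contain fluconazole at 8 µg/ml as a sub-toxic cotreatment; 0% = median of DMSO wells and 100% = median of geldanamycin control wells; wells of about 8 µL received 7.5 nL stock; the first replicate is given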
# rRNA inh HTS = inhibits bacterial ribosomal RNA function over humanized ribosomes. E. coli WT GFP vs humanized-ribosome RFP mutants, fluorescence, 24 h; active compounds read low; DMSO median 0, no signal -100. GFP signal change (wild-type ribosome), % (no concentration beside the values). actives 1.6% (n = 350,000). AID 720706;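 active means significant combined selectivity score with lowered wild-type GFP, culture density cut under 30%, mutant RFP and density less affected; inactive means any of these conditions unmet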; further: one replicate is shown; some compounds called inactive have numbers as strong as hits
# rRNA inh HTS OD600 = also measured in rRNA inh HTS; calls as there; OD600 change, %; measured here: OD600 growth;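 optical density of the mix in the first replicate; 0 = DMSO median and -100 = no signal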
# rRNA inh HTS RFP = also measured in rRNA inh HTS; calls as there; RFP signal change, %; measured here: RFP humanized mutant strains;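 first replicate; 0 = DMSO median and -100 = no signal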
# Numbers without * were called inactive; ? = inconclusive; · = not tested or not shown; & = joins results of further samples. The list is partial, so the mix of outcomes need not match the whole.
SMILES,ALR H2O2 inh,T cruzi inh,Beta apoptosis,LANA-H2B inh,Beta2AR agonist,Bfl-1 A1 inh,Calb FLC,rRNA inh HTS,rRNA inh HTS OD600,rRNA inh HTS RFP
CS(=O)(=O)Nc1cccc(C(=O)CC2(O)C(=O)Nc3ccc(Br)cc32)c1 (centres undefined),-8,-14,-7,-1.7&5.3,-2,0.6,-10,·,·,·
Nc1cc(N)c(OCC(F)(F)F)cc1OCC(F)(F)F,3,2,6,2.8,1,-0.2,21,·,·,·
C/C(=N\N)c1c(-c2ccccc2)c2cc(Br)ccc2[nH]c1=O,-3,7,0,4.7,-1,-0.9,24,·,·,·
O=c1[nH]cnc2c1C(c1ccc(Cl)cc1)c1c(nc[nH]c1=O)O2,-10,-9,·,-12,-2,-0.3,-6,·,·,·
Cc1ccc(S(=O)(=O)CCC(=O)OCC(=O)c2c(C)[nH]c3ccccc23)cc1,33,-10,-1,3.4,-5,-0.1,-3,·,·,·
C[C@@H](NC(=O)c1nc[nH]c1C(=O)N1CCN(c2ccccc2)CC1)c1ccccc1,51,·,-6,-1.1,-1,-0.1,·,·,·,·
CCOC(=O)c1cn2nc(Oc3cccc(F)c3)ccc2n1,10,0,-1,-1.6,-6,-0.3,7,8,8,2.6
O=C1/C(=C\c2cccs2)SC(=S)N1C1CCS(=O)(=O)C1 (centres undefined),-6,14,-19,9.0,-6,-0.2,36,3,0,-1.8
Cn1c(=O)[nH]c(=O)c2c1nc(N1CCOCC1)n2CCSc1nc2ccccc2[nH]1,5,-5,-5,6.4,-9,-0.9,-6,·,·,·
CCOc1cc(Br)c(C(C)NC(=O)c2cccnc2)cc1OCC (centres undefined),0,-9,5,-6.4,4,-0.6,-8,-3,-8,-2.9
Cc1ccc(N2CCN(C(=O)c3ccccc3Br)CC2)c(C)c1,-8,12,·,-1.4,5,1.3,9,·,·,·
Cc1ccccc1CN1CCC(n2nccc2NC(=O)CCOc2ccccc2)CC1,6,-14,3,6.7,-6,-1.1,19,-6,-7,-1.9
CCOc1ccccc1C(=O)Nc1nnc(CC)s1,-3,14,0,4.0,-16,-0.3,-2,-4,0,-1.8
NC(=O)[C@@H]1CCCNc2c(I)cc([N+](=O)[O-])cc2C(=O)N[C@@H](CCCN=C(N)N)C(=O)N[C@@H](CCCN=C(N)N)C(=O)N1,-27,·,-8,16,·,-0.1,·,·,·,·
O=C(O)COc1ccccc1/C=N/NC(=O)/C(=C\c1ccc2c(c1)OCO2)NC(=O)c1ccccc1,1,-11,-4,-3.7,1,0.0,-3,15,11,-11
COc1cc(NC(=S)Nc2cccnc2)cc(OC)c1,-14,1,2,-3.2,-8,0.4,-14,10,6,1.2
CCOC(=O)c1oc2nc(CC(C)C)c3c(c2c1N)CCC3,3,15,1,0.7,-9,0.7,44,-4,-14,0.4
COc1ccc(C2C(O)C(c3c[nH]c4ccccc34)=NN2C(=O)CCl)cc1 (centres undefined),13,32,129*,-0.3,19,8.0*,3,-3,-3,11
COc1ccc(C2OC34CCCCC3C(C#N)(C#N)C2(C#N)C(=N)O4)cc1 (centres undefined),-20,-10,-7,5.2,1,-0.3,7,·,·,·
CCCCNC(=O)C1CCC(CNS(=O)(=O)c2cccc3nsnc23)CC1 (centres undefined),-17,6,·,·,-3,·,-1,7,8,1.5

# Looked up above:
# Cc1ccccc1CN1CCC(n2nccc2NC(=O)CCOc2ccccc2)CC1 in Beta apoptosis has 3
# NC(=O)[C@@H]1CCCNc2c(I)cc([N+](=O)[O-])cc2C(=O)N[C@@H](CCCN=C(N)N)C(=O)N[C@@H](CCCN=C(N)N)C(=O)N1 in ALR H2O2 inh has -27
# CCOc1ccccc1C(=O)Nc1nnc(CC)s1 in Beta2AR agonist has -16
# COc1cc(NC(=S)Nc2cccnc2)cc(OC)c1 in rRNA inh HTS RFP has 1.2
# Cc1ccc(N2CCN(C(=O)c3ccccc3Br)CC2)c(C)c1 in Calb FLC has 9

# Full records from above. Values in the order: ALR H2O2 inh, T cruzi inh, Beta apoptosis, LANA-H2B inh, Beta2AR agonist, Bfl-1 A1 inh, Calb FLC, rRNA inh HTS, rRNA inh HTS OD600, rRNA inh HTS RFP
# Entry for `Cc1ccc(N2CCN(C(=O)c3ccccc3Br)CC2)c(C)c1` → -8, 12, ·, -1.4, 5, 1.3, 9, ·, ·, ·
# Entry for `O=C(O)COc1ccccc1/C=N/NC(=O)/C(=C\c1ccc2c(c1)OCO2)NC(=O)c1ccccc1` → 1, -11, -4, -3.7, 1, 0.0, -3, 15, 11, -11

# (list continues)
SMILES,ALR H2O2 inh,T cruzi inh,Beta apoptosis,LANA-H2B inh,Beta2AR agonist,Bfl-1 A1 inh,Calb FLC,rRNA inh HTS,rRNA inh HTS OD600,rRNA inh HTS RFP
O=C(CN1CCOCC1)Nc1ccc(S(=O)(=O)NC2CCCCC2)cc1,0,-15,0,-19,2,0.2,16,6,1,0.5
Cn1c(=O)c2c(nc(NCc3ccco3)n2Cc2ccc(Cl)cc2Cl)n(C)c1=O,-10,-9,59,7.1,-25,-0.2,1,·,·,·
COc1ccc2c(c1)C1NC(=S)NC(C)(O2)C1C(=O)Nc1ccccc1C (centres undefined),-28,11,-14,-0.1,7,1.1,1,·,·,·
O=C(NCCc1ccc(F)cc1)N[C@@H](Cc1ccccc1)C(=O)O,-12,2,-5,-3.0,7,-0.3,1,7,14,1.6
COc1ccc(CN(Cc2cccn2C)C(=O)c2cc3cc(OC)ccc3[nH]2)cc1,-4,29,-6,0.9,7,-0.4,2,11,-5,1.2
O=C(CSc1ccc2nnc(-c3ccc(Cl)cc3)n2n1)N1CCCC1,·,0,1,-4.1,-25,0.2,-6,2,6,-1.1
O=C(NC1CCS(=O)(=O)C1)c1cccs1 (centres undefined),-3,-27,5,-0.2,-6,0.2,0,2,4,-0.9
Cn1sc(NC(=O)c2ccccc2Cl)nc1=O,68,-2,-4,0.9,7,-1.4,16,·,·,·
CCOc1ccc(N2C(=O)CC(NCc3ccc(S(N)(=O)=O)cc3)C2=O)cc1 (centres undefined),-4,4,-6,2.8,5,0.3,0,1,5,-2.2
O=C(CCSCc1ccccc1Cl)N1CCN(c2cccc(Cl)c2)CC1,-11,27,1,4.4,18,0.0,1,·,·,·
CCN(C[C@H]1N[C@@](CC)(C(=O)OC)[C@H]2C(=O)N(Cc3ccccc3)C(=O)[C@@H]12)S(=O)(=O)c1ccc(-c2ccccc2)cc1,·,·,9,-1.2,4,0.0,·,10,17,0.8
COc1ccc(CCNC(=O)CCCCC(=O)NCCc2ccc(OC)cc2)cc1,-1,-5,·,-2.5,-5,0.5,-2,10,14,-0.2
COCCNC(=O)/C(C#N)=C/c1ccc(N2CCOCC2)o1,·,19,2,-32,4,0.3,29,·,·,·
Cc1nn(Cc2ccccc2)c(C)c1C(=O)OCC(=O)c1cc(C)n(C2CC2)c1C,5,33,5,-0.5,2,0.3,-2,·,·,·
O=C(CCCCCNc1nc(=S)[nH]c2ccccc12)NCCc1c[nH]c2ccccc12,4,32,5,1.4,22,-0.5,16,-29,-45,3.8
CC(=O)OCC(=O)[C@@]1(O)CC[C@H]2[C@@H]3CCC4=CC(=O)C=C[C@]4(C)[C@@]3(Cl)[C@@H](Cl)C[C@@]21C,-23,2,-14,-1.7,6,0.2,-7,-1,8,-0.1
CCOc1ccccc1CNCCNCC(C)O (centres undefined),2,-17,-1,2.1,8,0.0,?,·,·,·
O=C(CN1C(=O)c2ccccc2C1=O)Nc1cc([N+](=O)[O-])ccc1O,5,-6,-2,-1.2,8,0.6,3,3,-5,0.6
COc1ccc(OC)c(Cc2nnc(CCC(=O)NC(C3CC3)C3CC3)o2)c1,·,6,2,0.1,3,-0.5,19,7,5,-1.1
Cc1ccc(S(=O)(=O)NCC2CCC(C(=O)NCc3ccc4c(c3)OCO4)CC2)cc1 (centres undefined),3,12,-1,0.2,3,-0.1,-15,5,21,10
O=C(NCCCN1CCOCC1)c1ccc(CS(=O)(=O)c2cccc(C(F)(F)F)c2)o1,-4,-13,-2,1.1,-5,0.1,16,·,·,·
Cc1ccc(NC(=O)CSc2nnc(Cn3c(=O)sc4ccccc43)n2C)cc1,-10,3,0,0.5,6,0.3,11,5,0,1.6
O=[N+]([O-])c1cccc(NC(=S)N2CCCC2)c1,50,·,-5,-2.9,-3,0.0,9,7,8,4.9
CSCc1ccc(C(=O)NCc2ccccc2)cc1,·,0,-9,·,-6,-1.3,2,·,·,·
Cc1ccc(C)c(NC(=O)C2CC(O)CN2C(=O)OC(C)(C)C)c1 (centres undefined),4,-7,-3,-1.9,-1,-0.5,-6,·,·,·
COc1ccc(N2CCN(c3cc(C)c4cccc(C)c4n3)CC2)cc1,-2,14,-1,-2.3,0,1.2,-1,3,0,0.6
O=C(N/N=C\c1ccc(CNS(=O)(=O)c2ccccc2)o1)C(=O)Nc1ccc(F)cc1,-31,-5,-5,2.4,-14,-1.3,1,27,19,-0.3
O=[N+]([O-])c1ccc(Cl)cc1N1CCOCC1,-1,0,0,-6.1,-1,-0.3,8,·,·,·
COc1ccc(OC)c(NC(=O)CSc2ccc3nnc(-c4ccccn4)n3n2)c1,-1,-2,0,-2.2,0,0.7,-1,-2,-10,-2.3
COc1ccc(CCN2CC(C(=O)Nc3nnc(Cc4ccccc4)s3)CC2=O)cc1OC (centres undefined),-6,·,2,11*,2,0.4,·,-1,-2,-2.5
Cc1c(-c2ccccc2)sc2nc[nH]c(=S)c12,0,-11,-10,-1.5,-11,-0.5,-8,5,7,0.5
COc1ccc(-n2nnc3c(=O)n(CC(=O)Nc4cc(C)on4)cnc32)cc1,-6,-4,-4,-2.9,-5,0.0,-12,8,18,2.2

# Two entries from above, as labelled records:
> COc1ccc(OC)c(NC(=O)CSc2ccc3nnc(-c4ccccn4)n3n2)c1
  ALR H2O2 inh: -1
  T cruzi inh: -2
  Beta apoptosis: 0
  LANA-H2B inh: -2.2
  Beta2AR agonist: 0
  Bfl-1 A1 inh: 0.7
  Calb FLC: -1
  rRNA inh HTS: -2
  rRNA inh HTS OD600: -10
  rRNA inh HTS RFP: -2.3

> COc1ccc(CCN2CC(C(=O)Nc3nnc(Cc4ccccc4)s3)CC2=O)cc1OC (centres undefined)
  ALR H2O2 inh: -6
  T cruzi inh: ·
  Beta apoptosis: 2
  LANA-H2B inh: 11*
  Beta2AR agonist: 2
  Bfl-1 A1 inh: 0.4
  Calb FLC: ·
  rRNA inh HTS: -1
  rRNA inh HTS OD600: -2
  rRNA inh HTS RFP: -2.5

# An excerpt of these results, as tab-separated lines:
Molecule	ALR H2O2 inh	T cruzi inh	Beta apoptosis	LANA-H2B inh	Beta2AR agonist	Bfl-1 A1 inh	Calb FLC	rRNA inh HTS	rRNA inh HTS OD600	rRNA inh HTS RFP
Cc1ccc(NC(=O)CSc2nnc(Cn3c(=O)sc4ccccc43)n2C)cc1	-10	3	0	0.5	6	0.3	11	5	0	1.6
O=[N+]([O-])c1cccc(NC(=S)N2CCCC2)c1	50	·	-5	-2.9	-3	0.0	9	7	8	4.9

# Screening results (PubChem)
